Screening data as filed in PubChem.
VDR inh = vitamin D3 receptor (human) inhibition; VDR-SRC2-3 peptide fluorescence polarization, 2 h; Potency, µM, without a hit: max response, negative = inhibition, most hits filed as inhibitors; hit rate 0.93% among 400,000; AID 504847; active = well fitted inhibition curve with a large enough effect; inconclusive = small, poorly fitted or top-dose-only effect, or another doubt; inactive = no such curve, though single readings can be large or run the other way; also: series mostly up to about 120 µM
Target sequence (P11473 whole entry, looked up): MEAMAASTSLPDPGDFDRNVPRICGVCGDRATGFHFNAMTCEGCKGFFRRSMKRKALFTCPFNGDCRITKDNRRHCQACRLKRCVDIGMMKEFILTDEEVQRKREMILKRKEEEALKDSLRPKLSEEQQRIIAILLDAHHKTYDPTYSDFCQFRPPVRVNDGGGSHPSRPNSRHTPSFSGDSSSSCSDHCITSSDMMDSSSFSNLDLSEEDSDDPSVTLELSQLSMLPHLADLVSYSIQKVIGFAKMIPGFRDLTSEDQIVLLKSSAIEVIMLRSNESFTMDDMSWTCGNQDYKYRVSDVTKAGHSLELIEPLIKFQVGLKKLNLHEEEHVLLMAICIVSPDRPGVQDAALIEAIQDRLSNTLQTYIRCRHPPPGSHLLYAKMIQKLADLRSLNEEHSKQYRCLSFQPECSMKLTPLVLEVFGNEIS
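FP read-out; VDR + SRC2-3 coactivator peptide; 23 nl compound by pintool; 2 h RT incubation; reagents held at 4 deg C, protected from light.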
An asterisk follows results filed as active; ? = inconclusive; [ ] = dose if it differs, or a comment. % is scaled to controls: 0 for no effect and ±100 for the full control effect; potency is read from the fitted curve at half-maximal effect.

nr	mol	VDR inh
1	CN1C=CC2=C(C#N)C(N)C(C#N)(C#N)[C@H](c3ccccc3)[C@H]2C1 (stereo partly drawn)	-25%
2	C=Cc1ccc(N=Cc2c(O)ccc3ccccc23)cc1	-1%
3	COc1ccc(S(=O)(=O)N2CCN(CC(=O)N3CCc4ccccc4C3)CC2)cc1OC	-7%
4	CC[C@@]1(C(=O)OC)N[C@H](CN(C)C(=O)COC)[C@@H]2C(=O)N(Cc3ccccc3)C(=O)[C@@H]21	-14%
5	COc1ccc(N2CS(=O)(=O)/C(=C/N(C)C)C2=O)cc1	-3%
6	OCCC1CN(Cc2cccc(F)c2F)CCN1CCc1ccccc1 (stereo not drawn)	-13%
7	Cc1csc(Nc2ccccc2)n1	12%
8	Cc1ccsc1C(=O)OCC(=O)NCc1ccccc1	4%
9	CCOc1cc(Br)c(Br)c(C=Nc2ccc(NC(C)=O)cc2)c1O	-21%
10	COc1cccc(OC)c1C(=O)NC(=S)N1CCOCC1	-6%
11	O=C(Nc1sc2c(c1C(=O)O)CCCCC2)c1cccs1	-23%
12	COc1ccc(NC(=O)CSc2nnc3ccc(-c4ccncc4)nn23)cc1	29%
13	CC(=O)Nc1ccc(OCC(=O)NCc2ccc(C)cc2)cc1	0%
14	COc1cc(CNCCO)cc(Cl)c1OCc1ccc(Cl)cc1Cl	15%
15	COc1ccc(NC(=O)CN(C)C2CCS(=O)(=O)C2)cc1 (stereo not drawn)	7%
16	CC(C)c1ccc(NC(=O)c2cnn3c(C(F)F)cc(-c4ccccc4)nc23)cc1	-6%
17	COc1cc(NC(c2ccccc2)c2ccccc2)cc(OC)c1OC	-11%
18	COc1ccc([C@H]2CC(=O)C=C(c3c(C)cc(C)cc3C)C2)cc1	-1%
19	COc1cc(/C=C2\N=C(c3c(-c4ccccc4)noc3C)OC2=O)ccc1OC(C)=O	-30%
20	CCCN(CC(=O)Nc1ccccc1OC)C(=O)c1ccncc1	1%
21	CCOc1ccccc1NC(=O)Nc1ccc(CC#N)cc1	-13%
22	CC1(C)CN(c2ccccc2)N(Cc2ccc(F)cc2)C1=O	1%
23	COc1ccc(-c2nc3n(n2)C(c2ccc(OC)c(OC)c2)C(C(=O)Nc2cccnc2)=C(C)N3)cc1 (stereo not drawn)	-15%
24	CCC(C)(C)n1nnnc1C(c1ccc(O)c(OC)c1)N1CCc2ccccc2C1 (stereo not drawn)	?
25	Cc1cccc(/C=C\c2ccccc2)n1	0%
26	COc1ccc(C(=O)Oc2cc(-c3ccc4c(c3)OCO4)cc(=O)c3c(C)oc(C)c23)cc1	10%
27	CCC1=C(c2ccc(C)cc2)S(=O)(=O)N=C1N1CCC(C(=O)NCCCN2CCCCC2C)CC1 (stereo not drawn)	-6%
28	CCCn1c(=O)c(C(=O)NCCc2ccc(OC)c(OC)c2)c(O)c2ccccc21	?
29	O=[N+]([O-])c1cc(S(=O)(=O)N2CCOCC2)ccc1OCc1ccccc1C(F)(F)F	6%
30	CC1=C(C(=O)OCC2CCCO2)C(c2cccc(O)c2)NC(=O)N1 (stereo not drawn)	14%
31	COc1cccc(CC(=NO)c2cccc(OC)c2)c1	-5%
32	O=C(COc1c(Br)cc(Br)c2cccnc12)N1CCc2ccccc2C1	12%
33	COCCCNC(=O)/C(C#N)=C/c1ccc(F)cc1	-6%
34	CCCCC1=CC2=C(c3ccco3)C(=O)C(C)(OC(=O)c3ccc(OC)cc3)C(=O)C2=CN1CCN1CCOCC1 (stereo not drawn)	-16%
35	CN(Cc1ccccc1)C(=O)c1ccc(NC(=O)c2ccccc2)cc1	5%
36	O=c1cc(O)c2ccccc2[nH]1	10%
37	Cc1cc(-c2ccccc2)nc(N/N=C/c2ccc(O)cc2O)n1	-8%
38	COc1cccc(CN2CC(C(=O)NCc3cccc(Cl)c3)CCC2=O)c1 (stereo not drawn)	-4%
39	CCn1c(-c2ccccc2Cl)nn(CC(=O)Nc2ccccc2OC)c1=S	-7%
40	COc1ccc(O)c(CN2CCN(CCCc3ccccc3)C(CCO)C2)c1 (stereo not drawn)	-2%
41	CC(Oc1nc2c(c(=O)n(C)c(=O)n2C)n1C)C1CCCCC1 (stereo not drawn)	-6%
42	Cc1cc(N2CCN(S(=O)(=O)c3ccccc3)CC2)c2ccccc2n1	8%
43	O=C(CCCOc1ccccc1)NNC(=O)c1ccncc1	-6%
44	O=C(CN1C(=O)c2ccccc2S1(=O)=O)c1ccccc1F	-4%
45	COC(=O)COc1cccc(NC(=O)c2cccs2)c1	16%
46	COC(=O)CCC(=O)NNC(=O)c1ccc(Br)cc1	-7%
47	O=c1cc(CSc2n[nH]c(=O)n2C2CC2)c2ccc(O)cc2o1	-4%
48	CCOC(=O)C1=C(O)C(=O)N(c2ccc(S(N)(=O)=O)cc2)C1c1ccc([N+](=O)[O-])cc1 (stereo not drawn)	-26%
49	CCN(CC)CCn1c(=S)[nH]c2ccc(Br)cc2c1=O	-9%
50	COc1cc2c(cc1OC)-c1cc(Nc3ccccc3Br)nc(=O)n1CC2	18%
51	Cc1cc(C(=O)NCCN2CCN(c3cccc(Cl)c3)CC2)n(-c2ccccc2)n1	8%
52	S=c1[nH]nc(-c2ccco2)n1-c1ccc(Cl)cc1	-1%
53	C=C1[C@H](C)CN(S(=O)(=O)C(C)(C)C)[C@H]1CCO	-14%
54	COc1ccc(-c2nnc(SCc3cc(C)ccc3C)n2N)cc1	13%
55	CC(=O)NC(=O)NC1OC(=O)C(Cl)=C1Cl (stereo not drawn)	2%
56	CCc1ccc(C(=O)NNc2ccccc2F)cc1	?
57	CCN(CC(=O)N1CCC(C(N)=O)CC1)S(=O)(=O)c1ccc(Cl)cc1	-5%
58	C=CCNC(=S)NNC(=O)c1cccn(Cc2ccc(Cl)cc2Cl)c1=O	-5%
59	CCOc1cccc(C(=O)Nc2cc(-c3ccc(C)cc3)no2)c1	6%
60	Cc1cccc(NC(=O)Cn2c(O)c(N=NC(=O)c3ccccc3O)c3ccccc32)c1	-21%

Carrying on.
nr	mol	VDR inh
61	COc1ccc(CCNC(=O)COC(=O)c2cnc(C)cn2)cc1OC	-3%
62	COc1ccc(C(=O)N2CCN(c3ccccn3)CC2)cc1	-3%
63	CCCCc1c(O)nc(SCC(=O)Nc2ccc3c(c2)CCC3)[nH]c1=O	-9%
64	COc1ccc(OC)c(S(=O)(=O)N(C(C)=O)c2ccc3oc(=O)sc3c2)c1	-15%
65	Cc1ccc(S(=O)(=O)NCC(=O)OCC(=O)N2CC(=O)Nc3ccccc32)cc1	0%
66	COc1cc(OC)nc(NC(=O)CSc2nnc(-c3ccccc3)n2C2CCCCC2)n1	7%
67	COc1ccc(SC[C@H](Cc2ccccc2)N2CC[C@@H](O)CCC2=O)cc1	?
68	Cc1nc(SCC(=O)N2CCN(c3ccccn3)CC2)c(C#N)c(C)c1C	8%
69	Cc1ccc2nc(-c3cccc(NC(=O)c4cccc5ccccc45)c3)oc2c1	4%
70	O=C(CCOc1ccccc1)N1CCN(c2ccc(O)cc2)CC1	5%
71	CC(=O)Oc1ccc(/C=N/NC(=O)C2CCCN2S(=O)(=O)c2ccc(Cl)cc2)cc1 (stereo not drawn)	12%
72	O=C(COC(=O)C12CC3CC(CC(C3)C1)C2)NCC1CCCO1 (stereo not drawn)	-1%
73	Cc1nc([N+](=O)[O-])c(N2CCN(Cc3ccccc3)CC2)n1Cc1ccccc1	0%
74	CCCn1c(SCC(=O)NCc2ccccc2Cl)n[nH]c1=O	-5%
75	CCC1CCCCN1C(=O)Cn1c(=O)n(CCCC(=O)NCc2ccco2)c(=O)c2sccc21 (stereo not drawn)	-26%
76	O=c1oc2ccccc2cc1N1CCOCC1	1%
77	CCC(C(=O)NCc1ccc(F)cc1)N(Cc1cccs1)C(=O)c1snc(C(N)=O)c1N (stereo not drawn)	-8%
78	C[C@H](O)[C@@H]1C(=O)N2CCc3ccc(N4CCN(C)CC4)cc3[C@@H]2C[C@@H]1N(C)C(=O)c1ccc(C#N)cc1	1%
79	COc1cc(/C=N/NC(=S)NCCc2ccccc2)cc(OC)c1OC	19%
80	O=C(O)/C=C/c1coc2ccc(F)cc2c1=O	-7%
81	C/C=C(\C)C(=O)Nc1cccc(C2=NOC3(C2)C[C@@H](C(N)=O)N(C(=O)c2cc([N+](=O)[O-])cc([N+](=O)[O-])c2C)C3)c1 (stereo partly drawn)	1%
82	Cc1cc(C)cc(C(=O)NC(CC(N)=O)c2ccc(N3CCN(c4ccccn4)CC3)c([N+](=O)[O-])c2)c1 (stereo not drawn)	-2%
83	c1cncc(Nc2nc(-c3cccs3)cs2)c1	?
84	N/C(=N\OC(=O)c1ccc(F)cc1)c1ccc(Br)cc1	4%
85	O=C(COc1ccc2ccc(=O)oc2c1)N1CCN(c2ccc(F)cc2)CC1	1%
86	O=C(NCCC1=CCCCC1)c1cccc2c1C(=O)N(C1CCCCC1)C2	-3%
87	O=C(/C=C/c1ccc(Cl)c([N+](=O)[O-])c1)Nc1ccc(N2CCCC2)cc1	12%
88	Cc1cc(C)nc(NC(=O)c2csnn2)c1	-22%
89	CC(=O)Nc1cc2c3c(c1)CCC(=O)N3CCC2	6%
90	Cc1cccc(-c2nc(NCCCN(C)C)c3ccccc3n2)c1	33%[activator]
91	COc1ccc(NC(=O)C2CCCN2S(=O)(=O)c2ccc3c(c2)CCC(=O)N3)c(OC)c1 (stereo not drawn)	-12%
92	C#CCOCCOCCOCCNc1nc(N2CCN(C(=O)CCCCCCCCCCNC(=O)Cn3cc(CCCCCN)nn3)CC2)nc(N2CCN(C(=O)CCCCCCCCCCNC(=O)[C@@H]([C@H](C)O)n3cc(C)nn3)CC2)n1	6%
93	O=C(Nc1ccccc1)N1CCn2c1nc1ccccc12	1%
94	COc1ccc(C(=O)CSc2nnc(NC(=O)C3CC(=O)N(c4ccccc4)C3)s2)cc1 (stereo not drawn)	7%
95	COc1ccccc1OCCCOc1ccc(/C=C2\SC(=O)NC2=O)cc1OC	-7%
96	COc1cc2c(cc1OC)C(C)N(C(=S)Nc1ccccc1)CC2 (stereo not drawn)	11%
97	Cc1cc(-c2ccc(S(=O)(=O)N3CCCCC3)s2)on1	-22%
98	COC(=O)c1ccc(NC(=O)CSc2nc3cccnc3n2C)cc1	0%
99	CCc1ccc(NC(=S)Nc2cccc3cnccc23)cc1	?
100	Cc1ccc(SCC(=O)OCC(=O)N(CCC#N)c2ccccc2)cc1C	-26%

Next part, overlapping the part above by two compounds.
nr	mol	VDR inh
99	CCc1ccc(NC(=S)Nc2cccc3cnccc23)cc1	?
100	Cc1ccc(SCC(=O)OCC(=O)N(CCC#N)c2ccccc2)cc1C	-26%
101	CCc1ccccc1NC(=O)c1ccoc1C	-10%
102	COc1ccc(CNC(NC(=O)c2ccccc2)(C(F)(F)F)C(F)(F)F)cc1	-2%
103	CCOc1cc(C2C3=C(CCCC3=O)NC3=C2C(=O)CCC3)cc(Cl)c1O	2%
104	O=C(CSc1ccc(-c2ccccc2)nn1)c1ccccc1	-6%
105	CC(C)c1nc(C#N)c(NN)o1	-25%
106	COc1ccc(C2C(C(=O)NCC3CCCO3)c3cc(OC)c(OC)cc3C(=O)N2C)cc1OC (stereo not drawn)	8%
107	NS(=O)(=O)c1ccc(CCNc2ncnc3c2cnn3-c2cccc(Cl)c2)cc1	10%
108	Cc1ccc(S(=O)(=O)N(C)c2cc(S(=O)(=O)N3CCOCC3)c(C)cc2C)cc1	5%
109	O=C1CCC[C@H]2c3[nH]c4ccccc4c3CCN12	-17%
110	O=C(NNS(=O)(=O)c1ccccc1)c1ccccc1-n1cccc1	-4%
111	CCC(C)N(C(=O)CSc1nnnn1-c1ccccc1OC)C1CCS(=O)(=O)C1 (stereo not drawn)	-13%
112	O=C(OCCCc1cc2ccccc2c(=O)o1)c1ccccc1C(F)(F)F	-7%
113	CS(=O)(=O)N1CCC(C(=O)N2CCN(Cc3ccccc3)CC2)CC1	-10%
114	O=C(C1=C[C@H](c2ccc3c(c2)OCO3)C[C@H](OCc2ccc(CO)cc2)O1)N1CCN(Cc2ccc3c(c2)OCO3)CC1	-22%
115	CC(C(=O)O)c1ccc2c(c1)[nH]c1ccc(Cl)cc12 (stereo not drawn)	?
116	COc1ccc(NC(=S)NC23CN4CN(CN(C4)C2)C3)cc1	-2%
117	Cc1ccc(C)c(N2CCN(C(=O)CCS(=O)(=O)c3cccc4nonc34)CC2)c1	-13%
118	Cc1ccc(N=Cc2sc(O)c3ccccc23)c(C)c1	-23%
119	Cc1ccc(NC(=O)c2cc(S(=O)(=O)N3CCOCC3)cn2C)cc1F	5%
120	CC(=NCC1CCCO1)C1=C(O)CC(C)(C)CC1=O (stereo not drawn)	-1%

Reprinted at random: three entries already listed
nr	mol	VDR inh
102	COc1ccc(CNC(NC(=O)c2ccccc2)(C(F)(F)F)C(F)(F)F)cc1	-2%
109	O=C1CCC[C@H]2c3[nH]c4ccccc4c3CCN12	-17%
101	CCc1ccccc1NC(=O)c1ccoc1C	-10%

Rewritten with the structure last: 2 of the compounds above.
item | VDR inh | structure
109 | -17% | O=C1CCC[C@H]2c3[nH]c4ccccc4c3CCN12
110 | -4% | O=C(NNS(=O)(=O)c1ccccc1)c1ccccc1-n1cccc1

(listing goes on)
nr	mol	VDR inh
121	COc1ccc(C(CC(=O)N2CCOCC2)C(C)C)cc1 (stereo not drawn)	-15%
122	COc1ccc(N2C(=O)c3cccc4cc(Br)cc(c34)C2=O)cc1	-12%
123	CCCN(CCC)S(=O)(=O)c1ccc(C(=O)N2CCCc3ccccc32)cc1	-3%
124	Cc1ccc(C2C(C(=O)c3cc4ccccc4o3)=C(O)C(=O)N2CCN2CCOCC2)o1 (stereo not drawn)	1%

This is a subset; count on the stated rates, not on these rows.
